ClpP mod = qHTS Assay for Activators of ClpP; ATP-dependent Clp protease proteolytic subunit (Bacillus subtilis (strain 168)), P80244; actives 1.9% (n = 340,000); purified B. subtilis ClpP, FRET peptide cleavage, 20 min; AID 651965, 2013; Potency, µM (top dose mostly 57.5 µM), inactives show top-dose activity change, negative = active; active = well fitted falling curve with a large enough effect; inconclusive = small, poorly fitted or top-dose-only effect; inactive = no such curve, though single readings can be large or run the other way; note: potency is the fitted concentration of half-maximal effect; the source files actives as falling curves though it sought activators and does not explain the sign; nearly all actives have a fitted effect of over 65% in size; many hits overshoot -100%
Target sequence (P80244 whole entry, looked up): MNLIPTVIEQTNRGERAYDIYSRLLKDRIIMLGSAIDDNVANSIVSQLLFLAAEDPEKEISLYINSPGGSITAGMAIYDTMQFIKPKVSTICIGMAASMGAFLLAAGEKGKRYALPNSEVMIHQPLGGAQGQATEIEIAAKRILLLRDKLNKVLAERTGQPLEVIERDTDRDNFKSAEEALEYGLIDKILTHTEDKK
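Buffer: 100 mM Tris/HCl pH8, 100 mM KCl, 0.05% low protease BSA, 2.5% glycerol, 0.01% Tween-20. ClpP 10 microg/mL final; 20 min RT; delta FRET normalized to ADEP and DMSO controls.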
TRPML1 ag = qHTS for Agonists of the Human Mucolipin Transient Receptor Potential 1 (TRPML1); activation, % (concentration not given with the values); Mucolipin-1 (Homo sapiens), Q9GZU1; TRPML1-expressing cells, Ca2+ dye fluorescence, FDSS; host cell line not named in the record; reference of the full effect not given here; AID 624414, 2012; actives 0.12% (n = 410,000); in the data active = activation above about 50%; inconclusive = about 30% to 50%; inactive = below about 30%; note: 0% is about no effect; the text of the record puts the active cut at 80%
Target sequence (Q9GZU1 whole entry, looked up): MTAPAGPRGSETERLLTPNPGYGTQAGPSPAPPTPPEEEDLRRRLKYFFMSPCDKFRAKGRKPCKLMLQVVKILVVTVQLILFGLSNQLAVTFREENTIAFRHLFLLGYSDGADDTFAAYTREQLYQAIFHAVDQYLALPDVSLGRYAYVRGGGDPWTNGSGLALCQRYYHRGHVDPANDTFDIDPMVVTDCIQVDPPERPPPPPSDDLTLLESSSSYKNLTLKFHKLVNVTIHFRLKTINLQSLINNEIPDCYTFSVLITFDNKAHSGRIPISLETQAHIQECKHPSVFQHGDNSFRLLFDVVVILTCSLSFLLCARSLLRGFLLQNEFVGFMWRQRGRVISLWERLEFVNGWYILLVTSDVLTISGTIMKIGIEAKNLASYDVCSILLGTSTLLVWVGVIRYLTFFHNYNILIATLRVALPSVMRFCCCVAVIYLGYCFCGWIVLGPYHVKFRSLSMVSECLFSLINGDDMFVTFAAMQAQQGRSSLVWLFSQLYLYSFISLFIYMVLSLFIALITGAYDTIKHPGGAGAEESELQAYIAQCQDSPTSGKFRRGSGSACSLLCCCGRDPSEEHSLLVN
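Kinetic FDSS Ca2+ read in Tet-induced TRPML1-DL cells (ABD Ca8 dye plus quencher, 45-90 min RT loading): baseline, then compound, then 110 s agonist window; EC80 agonist 54-4 at 4uM final added afterwards for a 110 s antagonist window.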
Menin MLL FP FL = qHTS Assay for Inhibitors Targeting the Menin-MLL Interaction in MLL Related Leukemias: Competition With Fluorescein Labeled MLL-derived Peptide; Fluorescence polarization, fluorescein-MLL peptide displacement from menin; FP activity change, % at 61.4 µM; 290,000 tested, under 10 active; AID 1766, 2009; inconclusive = falling polarisation curve, or a change in total fluorescence; inactive = total fluorescence flat and polarisation flat or rising; no compound was filed as active; the % refers to the polarisation; negative = inhibition;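 note: % of control where 0% means no effect; inhibitors lower the polarisation; unlabelled MLL peptide was the positive control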
gsp antagonist = qHTS for Antagonists of gsp, the Etiologic Mutation Responsible for Fibrous Dysplasia/McCune-Albright Syndrome: qHTS. Potency, µM (series often up to 76.9 µM), for the others: at the highest dose activity change, negative = inhibition, most hits filed as inhibitors. gsp-mutant cells, cAMP HTRF, 30 min; control for the full effect not named in the record. actives 0.4% (n = 340,000); active = falling curve of any shape with a large fitted effect; inconclusive = falling curve, mostly with a smaller effect; inactive = flat or rising curve; cell line not stated here;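 note: intracellular cAMP measured with PDE inhibitor Ro 20-1724 present during compound exposure; potency is the fitted concentration of half-maximal effect; % is set by controls: 0 for no effect and ±100 for the full control effect; nearly all actives have a fitted effect of over 65% in size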
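HTRF cAMP read-out (cAMP-d2 plus anti-cAMP antibody-K in lysis buffer, 30 min RT). Before lysis, cells are exposed to compounds with […] for 30 min at 37C in DPBS containing Ca/Mg, BSA and Tween 20.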
gsp agonist = qHTS for Agonist of gsp, the Etiologic Mutation Responsible for Fibrous Dysplasia/McCune-Albright Syndrome: qHTS | gsp mutant cells, cAMP HTRF, 30 min; control for the full effect not named in the record | Potency, µM (titrated, usually from 76.9 µM), for inactives: top-dose activation (cAMP increase), actives largely listed as activators | actives 0.13% (n = 340,000) | AID 624287, 2012; active = well fitted activation curve with a large enough effect; inconclusive = small, poorly fitted or top-dose-only effect, or another doubt; inactive = no such curve, though single readings can be large or run the other way; cell line not stated here;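 note: phosphodiesterase inhibitor Ro 20-1724 added with compounds to block cAMP breakdown; potency is the fitted concentration of half-maximal effect; nearly all actives have a fitted effect of over 60% in size; about a fifth of the inactives were tested at one dose only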
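Cells in DMEM/10% FBS with G418 were pretreated with compounds in DMSO plus […] (300 uM stock) for 30 min at 37C. cAMP was measured by HTRF (cAMP-d2 plus anti-cAMP antibody-K) after 30 min at room temperature.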
TRPML1 blocker = qHTS for Inhibitors of the Human Mucolipin Transient Receptor Potential 1 (TRPML1). Mucolipin-1 (Homo sapiens), Q9GZU1. TRPML1-inducible cells, Ca2+ dye fluorescence, FDSS; hits give low values; inhibition of EC80 agonist-evoked calcium signal. activity change, negative = inhibition, % (test concentration not listed). actives 0.02% (n = 390,000); in the data active means activity change below about -50%; inconclusive means about -30% to -50%; inactive means above about -30%;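 note: stimulus is agonist 54-4 at its EC80 concentration; % is set by controls: 0 for no effect and ±100 for the full control effect; compound concentration not given in the record; the text of the record puts the active cut at -80%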
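Calcium fluorescence in TRPML1-DL cells induced overnight with Tet: a 110 s read after compound pin addition, then a 110 s antagonist read after challenge with 54-4 at 4 uM final (EC80).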
* = called active by the depositor; ? = inconclusive; / = not tested or not shown; & = joins results of further samples; [ ] = remark or other dose.

The line under a structure holds: ClpP mod | TRPML1 ag | Menin MLL FP FL | gsp antagonist | gsp agonist | TRPML1 blocker
> COc1cc(C(CC(=O)Nc2cc(C)ccn2)N2Cc3ccccc3C2=O)cc(OC)c1OC (configuration not stated)
  -1.0%&-1.1% | -1.3&0.8 | -1.7 | 10% | -3%[15.4 µM] | 2&-6
> Cc1ccc(CSc2nc3c(c(=O)[nH]2)CCC3)cc1
  -0.9% | -0.6 | 1.1 | -6% | -24% | -1
> CCOc1ccc(CNC(=O)c2ccc(CS(=O)Cc3ccc(Cl)cc3)o2)cc1 (configuration not stated)
  0.5% | -0.3 | / | / | / | -10
> O=C(c1cccc(C(=O)N2CCC(O)(c3ccccc3)CC2)c1)N1CCC(O)(c2ccccc2)CC1
  -0.9% | 3.7 | / | 0% | -24% | 3
> O=C1COc2ccc(C(=O)COC(=O)Cc3ccsc3)cc2N1
  / | 0.0 | -7.3 | 0% | -11%[15.4 µM] | 6
> CC(=O)NC(Cc1ccccc1)C(C)=O (configuration not stated)
  0.3% | 1.0 | 3.1 | 6% | 14%[15.4 µM] | 26
> CC(C)CCC1(CCNC(C)c2cccs2)CCOC(C)(C)C1 (configuration not stated)
  / | 1.2 | -5.5 | -4% | -9%[15.4 µM] | 5
> O=C(NC1=NCCS1)c1cccc(NC(=O)c2ccco2)c1
  -5.3% | 1.6 | 3.1 | -7% | -1% | -2
> Cc1ccc(Cn2nc(C)c(NC(=O)c3cc(C)no3)c2C)cc1
  0.7% | -0.6 | 0.8 | 11% | -8% | 13
> Cc1ccc(N=C2N=C(N)c3ccccc32)c(C)c1
  -1.4% | -0.2 | 2.7 | -17% | -3% | 14
> COc1cccc(C2CC3(CC(C)(C)NC(=S)N3)Oc3cc(O)ccc32)c1 (configuration not stated)
  5.8% | 0.2 | / | 1% | 11% | -18
> O=C(Nc1ccc(Cl)cc1)c1ccc(OCC2CCCO2)cc1 (configuration not stated)
  14µM* | 0.3 | -3.5 | -17% | 5%[15.4 µM] | -9
> COc1ccc(N2CCN(C(=O)CSc3ncccc3-c3nc4ccccc4[nH]3)CC2)cc1
  25µM* | 2.2 | 6.0 | -61% | 39% | 25
> Cc1ccc(/C=N/Nc2nc(N3CCOCC3)nc(N3CCOCC3)n2)o1
  / | 0.6 | -0.9 | -5% | 19% | -12
> O=C(C[n+]1ccc(CCSc2ccc(F)cc2)cc1)c1ccccc1
  / | 0.4 | ? | -3% | -5% | -11
> O=C(O)CSc1nnnn1-c1ccccc1
  -0.7% | 2.0 | 7.4 | 6% | 6% | 13
> CC1CCc2c(sc3nnn(CC(=O)Nc4c(C(C)C)cccc4C(C)C)c(=O)c23)C1 (configuration not stated)
  0.4% | -0.7 | / | / | / | -6
> Cc1nnc(SCC(=O)Nc2cc(Cl)ccc2Cl)n1CC1CCCO1 (configuration not stated)
  -2.6% | -0.9 | -2.2 | 5% | 8%[15.4 µM] | 5
> CC(C)(C)c1cc(CN2CCC(O)CC2)cc(C(C)(C)C)c1O
  -2.0% | 0.4 | -2.2 | 10% | -2% | 19
> Cc1ccc(/C=C/C(=O)OCC(=O)N2CC(=O)Nc3ccccc32)o1
  / | -0.4 | 1.3 | 5% | -11%[15.4 µM] | -19
> Cc1cc(C)nc(N2CCCC(C(=O)NCCC3=CCCCC3)C2)n1 (configuration not stated)
  -13% | -0.2 | -1.4 | 7% | -41%[inhibitor] | 7
> COCCC(=O)N1CCC(Oc2ccc(C(=O)N(C)CCCC3CCCC3)cc2)CC1
  -1.7% | 0.2 | 5.9 | -3% | -29% | -5
> O=C(N/N=C/c1ccc(N2CCOCC2)cc1)c1ccc(O)cc1
  -24% | -0.5 | ? | -13% | 2% | 3
> COCCNC(=O)C(c1ccc(C)cc1)N(Cc1cccs1)C(=O)CCC(=O)Nc1ccccn1 (configuration not stated)
  0.6% | -0.8 | -7.3 | -9% | -5%[15.4 µM] | 1
> CC(=O)Nc1sc(C)c(C)c1C(=O)OCC(=O)Nc1cc(S(=O)(=O)N2CCCCC2)ccc1Cl
  -6.3% | -0.5 | 3.3 | 4% | ? | 8
> Cc1ccc(OCCC(=O)Nc2ccc(F)c(F)c2)cc1
  0.4% | 1.9 | 5.1 | 3% | 14% | -1
> Brc1ccc(OCCCOc2cccc3cccnc23)cc1
  / | 1.1 | -1.9 | -6% | ? | 4
> O=C(CC1(O)C(=O)N(CCc2ccccc2)c2ccc(Br)cc21)c1ccccc1 (configuration not stated)
  -0.7% | 1.6 | / | / | / | -15
> Cc1c(C(=O)OC2CCCCCC2)[nH]c2c1C(=O)CC(c1ccccc1)C2 (configuration not stated)
  1.1% | -0.2 | / | / | / | -18
> CN(C)c1cc2c(c(N(C)C)c1)C(=O)c1ccccc1C2=O
  1.6% | 3.3 | 1.0 | -16% | -11% | -11
> Cc1cccc(S(=O)(=O)c2cn(Cc3ccccc3)c3cc(N4CCCC(C)C4)c(F)cc3c2=O)c1 (configuration not stated)
  ? | 2.4 | / | / | / | 13
> CCCN1CCN(C(=O)c2ccc(-c3ccc([N+](=O)[O-])cc3)o2)CC1
  -0.6% | 1.6 | / | -3% | 4% | 2
> S=c1[nH]ncn2c1cc1oc3ccccc3c12
  -0.3% | 10 | -0.7 | -1% | 93%[15.4 µM] | 6
> C=CCn1cccc(C(=O)Nc2ccc(F)cc2)c1=O
  0.5% | 0.4 | -1.7 | -7% | -20% | -7
> Nc1ncnc2c1ncn2[C@@H]1O[C@H](CO)C[C@H]1O
  0.0% | -0.1 | / | 2% | / | -8
> Cc1ccc(C2CC(=O)Nc3cc4c(cc32)OCO4)o1 (configuration not stated)
  -0.8% | 0.1 | 1.1 | -15% | 28% | 19
> COC(=O)c1cc(S(=O)(=O)N2CCCCC2C)c[nH]1 (configuration not stated)
  0.0% | 0.2 | -3.3 | 3% | 13% | 33
> C=CCC(NCc1ccco1)c1ccc(OC)cc1 (configuration not stated)
  1.3% | -0.3 | -4.8 | -6% | 20% | -2
> O=C(CSc1ccc(Cl)cc1)OCC(=O)N1CCN(c2ccccc2)CC1
  -5.4% | 0.0 | / | 0% | -8%[15.4 µM] | -6
> CCCN1CCc2c(sc(NC(=O)C3CCN(S(=O)(=O)c4cccs4)CC3)c2C(N)=O)C1
  / | 4.4 | / | -2% | -6%[15.4 µM] | 2
> Cc1ccc(-n2c(C)cc(C)c(C#N)c2=O)cc1C
  / | 1.0 | -1.3 | 2% | 2%[15.4 µM] | 38
> CCn1c(=O)c2cc(C(=O)NCCCN3CCC(C)CC3)sc2c2ccccc21
  3.8% | -0.6 | / | / | / | -2
> CCCC(CCC(=O)NC1CCCCC1)C(=O)O (configuration not stated)
  -0.9% | 1.5 | 2.7 | 8% | -35%[inhibitor] | 21
> O=C(c1cc2ccccc2o1)N(Cc1nnc(-c2ccccc2Cl)o1)C1CC1
  -4.7% | 1.5 | / | -9% | 5%[15.4 µM] | 8
> CN(C)C(=O)c1cc(F)ccc1Sc1cc(Cl)ccc1Cl
  -0.4% | 2.7 | 1.6 | 5% | -59%[inhibitor] | 4
> COc1ccc(CCNC(=O)COC(=O)/C=C/c2ccc3c(c2)OCO3)cc1OC
  -22% | 1.8 | / | -11% | -4% | 2
> O=C(NCCN1CCc2ccccc2C1)C1CC(=O)N(C2CCCC2)C1 (configuration not stated)
  -0.4% | -0.3 | 9.0 | 6% | 1% | -6
> Cc1ccc(OCCSc2nc3ccccc3n2CC(=O)O)c(C(C)C)c1
  / | -0.7 | -3.6 | -4% | -3% | -10
> COc1ccc(N=C2NC(=O)/C(=C/c3ccco3)S2)cc1
  -1.4% | 1.8 | ? | -19% | -14% | 8
> COc1ccc(OCC(=O)N/N=C\c2ccco2)cc1
  -0.6% | 2.8 | 0.6 | -9% | -44%[inhibitor] | 20
> Cc1ccc(-n2nc(CN3CCOCC3)c(-c3ccccc3)c2N)cc1Cl
  0.9% | -0.8 | -4.6 | -7% | 4% | 12
> CCc1cccc2c1NC(=O)[C@]21[C@@H]2C(=O)N(Cc3ccccc3)C(=O)[C@@H]2[C@@H]2CCCN21
  -1.9% | -0.3 | 5.3 | 4% | -33%[inhibitor] | 24
> CCOc1ccc2nc(SC3CC(=O)N(c4ccc(C)cc4)C3=O)sc2c1 (configuration not stated)
  -0.6% | 5.1 | 2.7 | -13% | 4% | -5
> COc1ccc2c(c1)C=C(CN1CCC(CO)(CCc3ccccc3)CC1)CO2
  / | -0.5 | 5.1 | 6% | ? | 3
> Cc1nn(Cc2ccccc2Cl)c(C)c1C(=O)NCC(c1cccs1)N1CCOCC1 (configuration not stated)
  -3.9% | -0.1 | / | -9% | 3% | 5
> COc1ccc([C@H]2CC(=O)C=C(c3cccc(OC(F)(F)F)c3)C2)cc1
  -0.8% | 4.2 | / | -6% | ? | 10
> CC(Oc1cccc2cccnc12)C(=O)N/N=C/c1ccc2c(c1)OCO2 (configuration not stated)
  -5.1% | -0.2 | / | -4% | -57%[inhibitor] | 0
> Cc1ccc2[nH]cc(S(=O)(=O)c3ccc(C)c(C)c3)c(=O)c2c1
  -4.0% | 0.1&0.8 | 0.1 | 4% | 6%[15.4 µM] | 0&-5
> Cc1ccc(S(=O)(=O)N(Cc2cc3ccccc3[nH]c2=O)CC2CCCO2)cc1 (configuration not stated)
  / | 0.1 | 3.0 | -6% | -69%[15.4 µM] | 2
> Cc1ccc(-c2csc3ncn(C(C)C(=O)O)c(=O)c23)cc1 (configuration not stated)
  0.4% | -0.1 | -2.6 | 12% | ? | 0

Next part:
The line under a structure holds: ClpP mod | TRPML1 ag | Menin MLL FP FL | gsp antagonist | gsp agonist | TRPML1 blocker
> Cc1ccc(Nc2nc(N)nc(CN3CCC(C)CC3)n2)c(C)c1
  -1.1% | 6.2 | / | 5% | 22% | 7
> COc1ccc(-c2nc(CSCC(=O)N3CCN(C(=O)c4ccco4)CC3)c(C)o2)cc1OC
  -9.8% | 0.2 | 1.7 | 4% | -1% | 1
> COc1ccc(CNCc2ccco2)cc1OCc1ccccc1
  -0.5% | 0.1 | -2.5 | 6% | -27% | -9
> COc1cccc(CC2(CO)CCN(Cc3ccc(NC(C)=O)cc3)CC2)c1
  -0.1% | -1.1 | 1.2 | 4% | -5%[15.4 µM] | 0
> N/C(=N\OC(=O)C12CC3CC(CC(C3)C1)C2)c1ccccc1
  0.3% | 0.5 | 2.5 | -11% | -20% | 14
> Cc1ccccc1Cn1c2ccccc2c2cnn(CC(=O)NCc3cccc(Cl)c3)c(=O)c21
  22µM* | 1.3 | / | / | / | -16

Screens: PubChem, National Center for Advancing Translational Sciences (NCATS)
